# Screens: PubChem, several laboratories
# ALR H2O2 inh = inhibitors of human sulfhydryl oxidase ALR; 3.8% of 290,000 active; P55789; inhibition, % (concentration not given with the values); purified ALR, DTT oxidation, H2O2 HRP-luminol luminescence;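 active = mean and each replicate at 75% or more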;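 also: stock transfer was 7.5 nL into about 7.5 µL; 0% = neutral wells and 100% = wells with inactivated enzyme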
# Target sequence (P55789 whole entry, looked up): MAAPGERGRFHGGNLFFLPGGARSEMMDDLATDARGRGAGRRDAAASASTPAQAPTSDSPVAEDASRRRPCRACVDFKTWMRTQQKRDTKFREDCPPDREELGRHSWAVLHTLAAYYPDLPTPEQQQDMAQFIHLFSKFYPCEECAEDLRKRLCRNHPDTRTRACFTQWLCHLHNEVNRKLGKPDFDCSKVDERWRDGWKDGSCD
# LANA-H2A inh = blocks KSHV LANA binding to histone H2A/H2B; Q9QR71; cell-free LANA-H2A/H2B peptide, fluorescence polarization; inhibition, % (no concentration beside the values); 0.6% of 320,000 active; AID 2629; in the data active = inhibition mostly above about 10%, no sharp cut-off; inactive = mostly below about 6.7%;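 also: stock transfer was 7.5 nL into about 10 µL; 0% = median of vehicle wells and 100% = median of positive control wells; one replicate is shown; the record names a cut of 25% in any replicate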
# B2AR ag = activates human beta-2 adrenergic receptor causing internalization | response, % (test concentration not listed) | P07550 | Am2.2-beta2AR cells, FAP receptor internalization, flow cytometry; reference of the scale not given here | 0.43% of 340,000 active;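 active = response above a set limit, near 3 SD of response in nonfluorescent compounds, cut at about 42% in these data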;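 also: stock transfer was 100 nL into about 11 µL; a reference agonist was the positive control; negative values mostly stem from fluorescent compounds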
# Target sequence (P07550 whole entry, looked up): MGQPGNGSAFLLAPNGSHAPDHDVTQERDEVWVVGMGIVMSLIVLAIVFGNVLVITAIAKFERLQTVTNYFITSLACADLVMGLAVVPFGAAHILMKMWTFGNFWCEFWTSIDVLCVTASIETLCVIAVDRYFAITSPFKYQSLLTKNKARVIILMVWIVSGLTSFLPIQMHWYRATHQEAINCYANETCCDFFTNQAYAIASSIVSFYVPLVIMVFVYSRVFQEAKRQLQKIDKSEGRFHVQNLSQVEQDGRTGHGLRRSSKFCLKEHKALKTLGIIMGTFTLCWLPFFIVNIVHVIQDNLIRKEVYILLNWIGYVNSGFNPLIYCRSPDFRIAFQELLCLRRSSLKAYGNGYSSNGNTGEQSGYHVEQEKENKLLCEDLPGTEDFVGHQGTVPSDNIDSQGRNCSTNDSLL
# E coli growth = inhibitors of Escherichia coli growth. 0.21% of 330,000 active. OD600 absorbance (concentration not given with the values). OD600, 23 h; hits give low values;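 active = OD600 absorbance below the run mean of sample wells minus 3.6 SD, in any replicate, cut at about 0.56 in these data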;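 also: stock transfer was 300 nL into about 60 µL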
# HNF4A DNA FP = change in binding of human HNF4 alpha to DNA; P41235; HNF4a-FITC DNA binding, fluorescence polarization, 1 h; activity change, % at 10 µM; 0.3% of 360,000 active; AID 1224865; in the data active = activity change above about 30%, passing the limit was not always enough;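 also: controls were the assay level and a saturating level of protein; the project sought stronger binding though the title names inhibitors; some compounds called inactive have numbers as strong as hits; positive values seem to mean higher polarization but the record does not say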
# Target sequence (P41235 whole entry, looked up): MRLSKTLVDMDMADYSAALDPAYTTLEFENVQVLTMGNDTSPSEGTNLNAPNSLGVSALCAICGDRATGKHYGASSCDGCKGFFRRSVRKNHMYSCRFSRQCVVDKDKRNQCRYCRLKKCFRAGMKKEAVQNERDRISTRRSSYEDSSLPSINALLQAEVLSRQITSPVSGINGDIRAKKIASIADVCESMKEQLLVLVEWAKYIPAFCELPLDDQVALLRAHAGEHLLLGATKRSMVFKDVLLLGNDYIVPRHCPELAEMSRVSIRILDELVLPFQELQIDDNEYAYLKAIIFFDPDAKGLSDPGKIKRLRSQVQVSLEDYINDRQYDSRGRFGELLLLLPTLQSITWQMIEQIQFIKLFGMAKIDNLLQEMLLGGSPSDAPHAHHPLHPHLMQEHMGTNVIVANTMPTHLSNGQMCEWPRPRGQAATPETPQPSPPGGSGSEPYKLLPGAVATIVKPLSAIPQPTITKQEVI
# FGF22 binding = FGF22 (human) thermal shift binding; Q9HCT0; recombinant FGF22 thermal shift, SYPRO orange fluorescence; percent of sucrose octasulfate shift, DMSO zero; calls only at 9.99 µM; 1.5% of 340,000 active; AID 651658;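 active = melting point raised past a set limit in the mean and every replicate; three in four hits are not shown here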
# UCH37 DUB inh = inhibitors of human deubiquitinating enzyme UCH37; 0.33% of 330,000 active; AID 588478; purified proteasome/UCH37, Ub-AMC cleavage fluorescence; inhibition, % (no concentration beside the values); Q9Y5K5;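 active = mean of two replicates above 20%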;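 also: 0% = compound-free wells with enzyme and 100% = wells lacking proteasome; stock transfer was 100 nL into about 20 µL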
#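 Test system – human UCH37 enzyme supplied as purified proteasome complex · Incubation – 30 min preincubation with enzyme, 25 min cleavage at room temperature · Detection – AMC fluorescence from Ub-AMC cleavage, excitation 355 nm, emission 460 nm · Benchmarks – no-proteasome wells (full inhibition) and compound-free wells (no inhibition)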
# Active calls of the source: *; i = inactive; . = no result given. Only part of the results is shown; rates above refer to the full screens.
cpd	Compound	ALR H2O2 inh	LANA-H2A inh	B2AR ag	E coli growth	HNF4A DNA FP	FGF22 binding	UCH37 DUB inh
1	CCOC(=O)C1CCCN(c2ncnc3c2cnn3-c2cccc(C)c2)C1 (stereo unspecified)	-2	-2.2	-2	0.68	0.8	.	1.5
2	N#CCCN(Cc1cccnc1)S(=O)(=O)c1ccc2ccccc2c1	-1	-3.0	-9	0.7	1.1	i	4.0
3	COc1ccc(CNC(=O)Cn2ncn3c(cc4ccccc43)c2=O)cc1	.	-9.7	-12	0.75	2.1	i	-12
4	CC1CCC(NC(=O)C2CC(=O)N(c3ccc4c(c3)OCCO4)C2)CC1 (stereo unspecified)	-17	3.9	0	0.66	2.6	i	-0.8
5	O=C(O)c1cccc(N2C(=O)c3ccc4c5c(ccc(c35)C2=O)C(=O)N(c2cccc(C(=O)O)c2)C4=O)c1	.	-6.1	2	0.72	-4.2	i	16
6	CCc1ccc(CCC(=O)Nc2ccc(S(N)(=O)=O)cc2)o1	3	-3.4	-1	0.73	3.0	.	1.9
7	CCN(CC(=O)Nc1ccccc1C(F)(F)F)C(=O)C1CCC1	-5	-13	-4	0.71	0.7	i	2.6
8	Cn1cc(Br)c(C(=O)NN2C(=O)C3C(C2=O)C2C=CC3C23CC3)n1 (stereo unspecified)	-19	0.2	-6	0.73	1.1	i	4.1
9	c1ccc2c3n(nc2c1)CCCO3	-12	0.6	1	0.7	-2.1	i	2.1
10	COc1ccc(N(CC(O)Cn2cnc3ccccc32)S(=O)(=O)c2ccc(C)cc2)cc1 (stereo unspecified)	-3	1.0	-4	0.68	2.5	i	1.7
11	COc1cc(NC(=O)C2=C(C)OCCS2)c(Cl)cc1C(=O)NCCN(C)C	-7	-0.5	-9	0.64	4.4	i	3.7
12	COc1ccccc1NC(=S)N1CCN(c2ccccn2)CC1	-3	0.9	-8	0.68	1.4	.	4.9
13	Fc1ccc(Nc2nc(N3CCOCC3)nc(N3CCOCC3)n2)cc1Cl	-3	0.3	10	0.72	2.7	i	-1.8
14	CCN(CC)C(=O)c1cc2c(=O)c3cc(Cl)ccc3oc2nc1C	-1	0.3	-3	0.69	0.3	i	-20
15	O=C(CSc1ccc2nnc(-c3ccccn3)n2n1)NCc1ccco1	0	4.8	-10	0.72	-1.5	i	0.7
16	COc1cccc(OCCNC(=O)c2cccc(OC)c2)c1	-9	2.8	5	0.7	-0.9	.	-0.4
17	CC(=O)Nc1cccc(C(=O)OCC(=O)c2ccc3c(c2)OCO3)c1	-2	0.0	3	0.58	4.4	i	1.6
18	CSCC[C@H](NS(=O)(=O)c1ccc(C)cc1)C(=O)N1CCC(C(=O)N[C@@H](Cc2ccccc2)C(=O)O)CC1	.	3.0	2	0.74	2.9	i	-2.7
19	O=c1c2cc(N3CCOCC3)ccc2[nH]c(=S)n1CCCN1CCCCC1	23	-1.6	-4	0.68	1.1	.	-49
20	CCN(CC(=O)Nc1cc(Cl)ccc1C)C(=O)COc1cccc2c1OC(C)(C)C2	0	-0.4	1	0.73	2.8	i	0.5
21	COc1cc2c(C(=O)NC3CCCCCC3)cn(C)c(=O)c2cc1OC	-8	-3.1	-4	0.83	-0.2	.	-0.7
22	O=C(CCNC(=O)c1ccc(Br)cc1)NNC(=O)c1ccccc1O	1	-1.7	1	0.69	4.4	i	-9.6
23	CCCCN1CNC(=S)N(c2ccc(C(=O)OCC)cc2)C1	-5	-1.4	9	0.64	3.2	i	1.5
24	CCOc1ccc(S(=O)(=O)NCCC(=O)NCC(c2cccs2)N(C)C)cc1 (stereo unspecified)	-1	2.4	-13	0.71	-2.0	i	-4.0
25	Cc1cccc(OCC(O)CNC(=O)c2ccccc2C(=O)O)c1 (stereo unspecified)	0	-1.6	-1	0.76	-1.5	.	4.6
26	Cc1ccn2c(C(=O)CSc3ccc(Cl)cc3)c(C)nc2c1	-5	-6.3	-10	0.74	-0.8	.	4.5
27	CC(c1ccccc1)C1CC(=O)N(c2ccc([N+](=O)[O-])cc2)C1=O (stereo unspecified)	0	-0.7	-2	0.68	-0.5	i	4.8
28	NC(=O)CC(NC(=O)c1ccc(Br)cc1)c1ccc(N2CCN(c3ccc(F)cc3)CC2)c([N+](=O)[O-])c1 (stereo unspecified)	-3	2.6	-2	0.71	-3.8	i	4.7
29	Cc1ccc(OCC(=O)N/N=C/c2cccnc2)cc1C	-8	-3.2	11	.	1.9	i	.
30	CCCNC(=S)N1CCN(c2nc(-c3cccc(OC)c3)cs2)CC1	-4	3.7	2	0.66	0.6	i	3.1
31	COC(=O)c1oc2ccc(Br)cc2c1NC(=O)CN1CCN(C)CC1	-31	-1.5	3	0.71	-2.3	.	-0.2
32	CCn1c(=O)c(C(=O)NC(C)c2ccccc2)c(O)c2ccccc21 (stereo unspecified)	4	3.9	14	0.68	3.6	i	2.7
33	COC(=O)N1CCCc2cc(C)ccc21	.	-0.8	-3	0.69	3.1	i	-25
34	COc1ccc(/C=C2\SC(=S)N(CC(=O)NC3C=CS(=O)(=O)C3)C2=O)cc1 (stereo unspecified)	-1	-5.6	.	0.71	2.3	i	8.8
35	CC(C)(C)c1ccc(C(=O)Nn2c(CCC(=O)O)ccc2-c2cccs2)cc1	33	-2.9	-2	0.65	4.9	i	0.4
36	Cc1c[n+](CC(=O)c2ccccc2)c(C)cn1	-3	2.2	2	0.72	4.8	i	3.8
37	N#Cc1cccc(-n2c(-c3ccccc3)nnc2-c2ccccc2)c1C#N	1	0.2	7	0.7	0.5	i	2.5
38	Cn1c(SCc2ccc(Br)cc2)nnc1-c1ccncc1	-17	0.7	6	0.65	0.6	i	2.9
39	COc1ccccc1N(C)S(=O)(=O)c1ccc(C(=O)Nc2ccc(N3CCOCC3)cc2)cc1	-8	-2.9	22	0.7	-2.8	i	3.9
40	COc1ccc(-n2c(C)cc(/C=C3\C(=N)N4N=C(CC(=O)N5CCOCC5)SC4=NC3=O)c2C)cc1	17	-0.7	-1	0.73	12	i	-120
41	CCN(Cc1ccncc1)C(=O)c1cccs1	3	-1.9	4	0.72	3.7	.	0.7
42	CCOc1cc(C(=O)N(Cc2ccccc2)c2ccc(C)cc2)ccc1OCC(=O)N1CCOCC1	.	.	-1	0.66	-0.3	i	4.0
43	CCOC(=O)CNC(=O)CNC(=O)c1ccc(OC)cc1	-4	-7.6	-1	0.73	0.5	.	3.8
44	C/C(=C\c1ccccc1)CN1CCN(C(C)C)C(CCO)C1 (stereo unspecified)	.	2.6	-4	0.66	-2.0	i	-0.1
45	CCSc1nnc(NC(=O)CSc2nnc(-c3c[nH]c4ccccc34)n2CC)s1	-1	-2.5	-7	0.69	-2.5	i	2.2
46	O=C(c1cccnc1)N1CCc2ccccc21	.	7.2	0	0.73	-1.0	.	-0.8
47	C[C@H](CO)N1C[C@H](C)[C@@H](CN(C)S(C)(=O)=O)Oc2c(NC(=O)C3CCCCC3)cccc2C1=O	-2	-1.2	0	.	-3.4	i	0.9
48	CCc1cc2c(=O)n(-c3ccccc3)cnc2s1	-9	-1.1	-6	0.75	0.9	.	5.5
49	Cc1ccc(OC(=O)COc2ccccc2C)c(-n2nc3ccccc3n2)c1	96*	9.4	1	0.68	-0.5	.	-0.4
50	COc1cc2sc(-c3ccccc3OC)c(-c3ccc(O)cc3)c2cc1OC	3	6.6	-3	.	-3.9	i	.

# 5 entries from above, arranged by molar mass, highest first.
cpd	Compound	ALR H2O2 inh	LANA-H2A inh	B2AR ag	E coli growth	HNF4A DNA FP	FGF22 binding	UCH37 DUB inh
45	CCSc1nnc(NC(=O)CSc2nnc(-c3c[nH]c4ccccc34)n2CC)s1	-1	-2.5	-7	0.69	-2.5	i	2.2
31	COC(=O)c1oc2ccc(Br)cc2c1NC(=O)CN1CCN(C)CC1	-31	-1.5	3	0.71	-2.3	.	-0.2
38	Cn1c(SCc2ccc(Br)cc2)nnc1-c1ccncc1	-17	0.7	6	0.65	0.6	i	2.9
16	COc1cccc(OCCNC(=O)c2cccc(OC)c2)c1	-9	2.8	5	0.7	-0.9	.	-0.4
36	Cc1c[n+](CC(=O)c2ccccc2)c(C)cn1	-3	2.2	2	0.72	4.8	i	3.8

# ALR H2O2 inh, what is marked active above.
cpd	Compound	ALR H2O2 inh	LANA-H2A inh	B2AR ag	E coli growth	HNF4A DNA FP	FGF22 binding	UCH37 DUB inh
49	Cc1ccc(OC(=O)COc2ccccc2C)c(-n2nc3ccccc3n2)c1	96*	9.4	1	0.68	-0.5	.	-0.4

# (next part)
cpd	Compound	ALR H2O2 inh	LANA-H2A inh	B2AR ag	E coli growth	HNF4A DNA FP	FGF22 binding	UCH37 DUB inh
51	Cc1cc(C)c(C)c(S(=O)(=O)N[C@@H](C)C(=O)OCc2cc(=O)n3cc(Br)ccc3n2)c1C	-5	-5.2	-10	0.71	-9.2	i	-0.8
52	COC(C[C@H]1O[C@H]1[C@H](O)COCc1ccccc1)OC	.	.	0	.	2.3	i	0.8
53	COc1cc(C(=O)N(C)CC2CCN(CCc3cccc(C(F)(F)F)c3)CC2)ccc1C	.	-6.2	0	0.71	-2.4	i	5.8
54	O=C1CN(C(=O)CSc2nnnn2-c2ccc(Cl)cc2)c2ccccc2N1	.	0.9	2	0.67	1.9	i	2.8
55	CC1c2[nH]c3ccccc3c2CCN1C(=O)Nc1ccccc1 (stereo unspecified)	50	1.4	-13	0.71	0.3	.	2.6
56	Cc1c(-c2ccccc2)oc2c(C(=O)OCC(=O)Nc3cccc(F)c3)cccc2c1=O	-2	2.6	-10	0.66	3.0	i	0.4
57	CC(=O)c1c(C)[nH]c(C(=O)NNC(=O)c2ccc(Br)cc2)c1C	.	-1.6	16	0.67	-3.2	i	2.8
58	O=C(CSc1nc2[nH]ncc2c(=O)[nH]1)NCc1ccc(F)cc1	-2	3.2	-4	0.65	2.7	i	4.0
59	Cc1ccc(NS(=O)(=O)c2ccc(NC(=O)c3cccc(NC(=O)C(C)C)c3)cc2)cc1	1	-3.3	-2	0.76	-1.9	.	-1.3
60	Cc1nc(SCC(=O)c2ccccc2)c([N+](=O)[O-])[nH]1	98*	-0.4	2	0.65	3.6	.	8.2
61	CN1CCN(C(=O)CCc2nc3ccccc3n2-c2ccccc2)CC1	-3	-5.7	-2	0.64	0.1	i	0.3
62	O=C(Nc1nccs1)C1CCN(S(=O)(=O)c2ccc(F)cc2)CC1	-3	-1.4	-4	0.7	-3.9	i	5.3
63	COc1cccc(C(=O)c2c[nH]c(C(=O)NCc3cccs3)c2)c1	-13	2.8	4	0.69	1.3	.	4.1
64	COc1cccc(NC(=O)CN2C(=O)NC(C)(CC(C)C)C2=O)c1 (stereo unspecified)	0	-3.3	4	0.71	0.9	.	4.5
65	CN1/C(=C\C(=O)CSc2nncn2C)C(C)(C)c2ccccc21	-19	-0.5	-2	0.71	1.8	.	8.0
66	COc1cccc(SCc2noc(C(=O)NCCCN3CCOCC3)c2C(=O)NCCCN2CCOCC2)c1	-1	-3.1	0	0.69	-0.6	.	3.9
67	CCc1ccccc1NC(=O)CNC(=O)c1cccc(S(=O)(=O)N2CCN(Cc3ccccc3)CC2)c1	.	-1.8	-5	.	-0.7	i	.
68	C[C@@]12C(=O)N(c3cccc(Cl)c3)C(=O)N1[C@H](c1ccc(Cl)cc1)[C@@H]1C(=O)N(C3CCCCC3)C(=O)[C@@H]12	2	0.0	7	.	1.7	i	-0.3
69	Cc1ccc(/C=N/N=C2/NC(=O)C(CC(=O)N3CCOCC3)S2)cc1 (stereo unspecified)	4	-1.0	-4	.	-1.2	i	.
70	COCCCn1c(=O)c2ccccc2c2ccccc2c1=O	5	-0.6	6	0.78	0.2	.	-1.5
71	Cc1ccc(NS(=O)(=O)c2ccc(Br)s2)cc1S(=O)(=O)N1CCOCC1	-2	-0.1	-3	0.71	4.6	i	2.7
72	O=C(Nc1cccc(C(F)(F)F)c1)c1cccnc1NCCc1ccccc1	.	-3.6	0	0.66	4.5	.	-61
73	Cc1cccc2nc(CSc3nnc4ccccn34)cn12	-3	-0.1	5	0.67	0.8	.	1.1
